# HNF4A DNA FP: change in binding of human HNF4A to DNA, primary screen, biochemical, fluorescence polarization, FITC-DNA; 1 h; activity change, % at 10 µM; 0.3% of 360,000 active; AID 1224865, 2016; in the data active = activity change above about 30%, passing the limit was not always enough;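 also: controls were the assay level and a saturating level of protein; the project sought stronger binding though the title names inhibitors; some compounds called inactive have numbers as strong as hits; positive values seem to mean higher polarization but the record does not say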
# Target sequence (P41235 whole entry, looked up): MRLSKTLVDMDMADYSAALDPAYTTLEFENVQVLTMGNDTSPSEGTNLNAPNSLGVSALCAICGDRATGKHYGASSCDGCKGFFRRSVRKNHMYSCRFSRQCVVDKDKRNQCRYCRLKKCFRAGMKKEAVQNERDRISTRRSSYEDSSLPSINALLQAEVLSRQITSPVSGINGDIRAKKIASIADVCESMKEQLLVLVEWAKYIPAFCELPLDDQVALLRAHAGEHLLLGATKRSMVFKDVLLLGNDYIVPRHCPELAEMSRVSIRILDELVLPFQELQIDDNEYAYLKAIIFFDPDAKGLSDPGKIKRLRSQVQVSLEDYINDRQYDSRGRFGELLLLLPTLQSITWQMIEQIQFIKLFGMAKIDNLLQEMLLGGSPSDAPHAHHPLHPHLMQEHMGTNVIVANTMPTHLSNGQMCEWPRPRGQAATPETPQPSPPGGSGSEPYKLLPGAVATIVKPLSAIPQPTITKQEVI
# Bfl-1 A1 inh: caspase 3/7 activation in MEF A1-2A-BIM cells, primary screen, A1 inhibitor project, cell-based, luminescence, HTS | Caspase-Glo 3/7 luminescence, 3 h; percent of clofoctol response, vehicle zero | caspase activation, % (no concentration beside the values) | 0.066% of 330,000 active | AID 2462, 2010;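 active = over half of replicate activation scores above 10%, or exactly half above 10 with the replicate mean above 10; inconclusive = replicate mean below 10 yet half the replicates above 10; inactive = over half of replicates below 10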;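 also: wells of about 30 µL received 50 nL stock; many hits fall short of the cut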
# Vif TR-FRET: inhibitors of Vif binding to APOBEC3G peptide, primary screen, biochemical, TR-FRET, GST-Vif 1-94, biotin-A3G peptide, dose response retest (AID 1117319). Virion infectivity factor (Human immunodeficiency virus type 1 group M subtype B (isolate …. TR-FRET GST-Vif / biotin-A3G peptide binding; higher % means a stronger effect; test concentration not given here; strong numbers were not always called active. one-dose inhibition, %; IC50 in µM for titrated hits. 0.57% of 260,000 active;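 active = above the screen mean plus three standard deviations and confirmed in dose response; inconclusive = results disagree or hit not tested in dose response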;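 also: Vif residues 1-94 fused to GST binding biotinylated APOBEC3G peptide 110-148; 0% = full assay without inhibitor and 100% = GST in place of GST-Vif; retest series ran down from 100 µM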
# UCH37 inh: inhibitors of human UCH37 deubiquitinase, primary screen, biochemical, Ub-AMC cleavage, fluorescence | 0.33% of 330,000 active | inhibition, % (concentration not given with the values) | AID 588478, 2011 | purified proteasome/UCH37;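 active = mean of two replicates above 20%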;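 also: 0% = compound-free wells with enzyme and 100% = wells lacking proteasome; stock transfer was 100 nL into about 20 µL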
# Target sequence (Q9Y5K5 whole entry, looked up): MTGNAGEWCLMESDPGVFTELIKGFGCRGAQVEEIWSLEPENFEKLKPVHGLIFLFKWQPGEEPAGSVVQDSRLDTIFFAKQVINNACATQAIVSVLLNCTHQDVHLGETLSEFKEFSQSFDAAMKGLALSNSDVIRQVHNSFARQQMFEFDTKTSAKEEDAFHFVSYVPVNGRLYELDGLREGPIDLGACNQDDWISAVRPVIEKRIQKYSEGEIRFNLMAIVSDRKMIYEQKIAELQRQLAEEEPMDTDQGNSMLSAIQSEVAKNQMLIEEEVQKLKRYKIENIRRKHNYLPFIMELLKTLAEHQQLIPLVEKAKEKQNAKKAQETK
#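 assay system = human UCH37 enzyme supplied as purified proteasome complex | amount = proteasome at 0.15 nM in the dispensed enzyme solution | schedule = 30 min compound-proteasome preincubation then 25 min substrate reaction, room temperature | measured by = fluorescence, ex 355 nm, em 460 nm | benchmarks = no-proteasome wells (full inhibition) and compound-free wells (no inhibition)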
# LANA-H2B inh: blockers of LANA interaction with H2A/H2B – biochemical, FP readout, HTS, primary screen | Protein LANA1 (Human herpesvirus 8 type P (isolate GK18)), Q9QR71 | inhibition, % (no concentration beside the values) | cell-free LANA-H2A/H2B peptide, fluorescence polarization | 0.6% of 320,000 active; in the data active = inhibition mostly above about 10%, no sharp cut-off; inactive = mostly below about 6.7%;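 also: stock transfer was 7.5 nL into about 10 µL; 0% = median of vehicle wells and 100% = median of positive control wells; one replicate is shown; the record names a cut of 25% in any replicate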
# B2AR ag: beta2AR agonists driving receptor internalization, primary screen, cell-based, FAP fluorogen, flow cytometry; Beta-2 adrenergic receptor (Homo sapiens), P07550; Am2.2-beta2AR cells; reference of the scale not given here; response, % (concentration not given with the values); 0.43% of 340,000 active; AID 504454, 2011;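 active = response above a set limit, near 3 SD of response in nonfluorescent compounds, cut at about 42% in these data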;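 also: stock transfer was 100 nL into about 11 µL; a reference agonist was the positive control; negative values mostly stem from fluorescent compounds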
# Ecoli growth: E. coli growth inhibition, primary screen, OD600. Escherichia coli growth, 23 h; stronger effect = lower value. OD600 absorbance (test concentration not listed). AID 1053175, 2014. 0.21% of 330,000 active;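 active = OD600 absorbance below the run mean of sample wells minus 3.6 SD, in any replicate, cut at about 0.56 in these data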;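 also: stock transfer was 300 nL into about 60 µL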
# An asterisk follows results filed as active; ? = inconclusive; nt = no result given; & = joins results of further samples.
SMILES,HNF4A DNA FP,Bfl-1 A1 inh,Vif TR-FRET,UCH37 inh,LANA-H2B inh,B2AR ag,Ecoli growth
CS(=O)(=O)Nc1cccc(C2=NN(C(=O)c3ccccc3Cl)C(c3ccccc3O)C2)c1 (stereo not given),2.5,-0.4,14%,4.9,-2.7,-3,0.7
O=c1cc(-c2ccc([N+](=O)[O-])cc2)c2ccc(O)cc2o1,-5.9,0.4,-5%,1.0,-3.2,5,0.72
Cc1ccc(C(=O)CSc2nnc3n2CCCCC3)s1,3.7,-0.9,-8%,0.2,5.1,18,0.68
CN(C)C(=O)[C@H]1C[C@H]1[C@@H](O)[C@H](CO)NC(=O)[C@H](COCc1ccccc1)NC(=O)OC(C)(C)C,0.9,-0.5,nt,nt,1.4,7,nt
Cc1ccc(NC(=O)N2CCCCCC2)cc1C,-0.1,-0.9,-3%,-2.1,-3.7,0,0.64
CS(=O)(=O)c1ccc(C(=O)OCC(=O)N2CCCc3ccccc32)cc1,1.4,0.5,4%,1.3,-0.5,-1,0.7
Cc1ccc(-n2nnnc2SCC(=O)Nc2ccccc2-c2ccccc2)cc1C,0.6,-0.4,nt,1.2,-7.4,-3,0.71
O=C(Nc1ccc(Cl)cc1)c1cccnc1N1CCCCC1,1.6,-0.6,-1%,-0.7,-2.9,-18,0.68
CCCCCCC(=O)N/N=C(\C)Cc1ccccc1,-0.5,-0.1,nt,nt,-1.3,-4,nt
Cc1ccc(C)c(S(=O)(=O)N/N=C/c2ccc(C(=O)O)cc2)c1,-2.2,-1.2,-6%,nt,-5.9,-2,nt
Oc1ccc(Nc2nc(-c3ccc(O)cc3)cs2)cc1,1.9,-0.8,7%,-5.0,5.6,6,0.59
O=C(Nc1cccc(C(=O)O)c1)Nc1cccc2ccccc12,-1.4,-5.6,-7%,-0.9,1.3,-5,0.69
Cc1ccc(-c2csc3ncn(C(C)C(=O)O)c(=O)c23)cc1 (stereo not given),-0.9,1.3,nt,1.1,-5.0,10,0.7
Cc1ccc(Nc2nc(N)nc(CN3CCC(C)CC3)n2)c(C)c1,-1.6,-0.3,0%,0.9,1.2,3,0.69
COc1ccc(-c2nc(CSCC(=O)N3CCN(C(=O)c4ccco4)CC3)c(C)o2)cc1OC,-2.1,-0.4,4%,-0.2,2.2,-3,0.75
COc1ccc(CNCc2ccco2)cc1OCc1ccccc1,-0.7,-0.4,?,-0.4,2.6,-6,0.69
N/C(=N\OC(=O)C12CC3CC(CC(C3)C1)C2)c1ccccc1,1.4,0.4,?,0.4,-4.9,-4,0.75
COc1cccc(CC2(CO)CCN(Cc3ccc(NC(C)=O)cc3)CC2)c1,4.2,1.6,10%,1.9,4.0,-5,0.69
CCN(C(=O)CSc1nc(-c2ccccc2)c(-c2ccccc2)[nH]1)C1CCS(=O)(=O)C1 (stereo not given),-4.1,0.3,-1%,-9.7,-5.6,-14,0.71
Cc1cc(C)c(S(=O)(=O)/N=C2/C=C(SCC(=O)O)C(=O)c3ccccc32)cc1C,38*,nt,?,nt,nt,2,nt
CCc1nc2c(sc3nc4c(cc32)COC(C)(C)C4)c(=O)n1Cc1ccccc1,3.8,1.3,-36%,-6.1,-2.2,-3,0.71
CCN(CC(=O)Nc1ccccc1C(F)(F)F)C(=O)C1CCN(C(=O)Nc2ccccc2)CC1,0.7,0.7,5%,-1.4,-2.3,6,0.68
CC(=O)Nc1c(O)nc(SCC(=O)Nc2cccc(C)c2)[nH]c1=O,0.5,0.2,19%,1.0,4.2,4,0.65
CCOC(=O)NC(=O)CSc1nnnn1-c1ccccc1,-0.7,-1.9,?,2.9,-3.4,10,0.69
CC(OC(=O)c1ccc(NS(=O)(=O)c2ccc3[nH]c(=O)[nH]c3c2)cc1)C(=O)Nc1cccc(Cl)c1Cl (stereo not given),-0.7,0.2,19%,-1.1,-4.6,-7,0.73

# Following part.
SMILES,HNF4A DNA FP,Bfl-1 A1 inh,Vif TR-FRET,UCH37 inh,LANA-H2B inh,B2AR ag,Ecoli growth
O=C(OCc1nc2ccccc2s1)C1CCN(C2=NS(=O)(=O)c3ccccc32)CC1,-2.4,0.1,2%&-8%,1.8,-0.5,18,0.68
O=C(COC(=O)c1cc(S(=O)(=O)N2CCOCC2)ccc1Cl)NCc1ccc2c(c1)OCO2,1.8,-0.2,7%,0.9,0.2,-3,0.67
COC(=O)CNC(c1ccccc1)c1cc(Br)ccc1NC(=O)CNC(=O)OCc1ccccc1 (stereo not given),1.6,0.0,-6%,-0.5,-6.6,0,0.73
COc1ccc(-n2nc(C(C)=O)c(=O)[nH]c2=O)cc1,-8.3,-0.3,0%,0.7,-1.6,3,0.74
CC(=O)c1cc(C#N)c(Oc2ccccc2)nc1C,-2.1,0.4,-5%,0.8,0.5,-9,0.71
Cc1cc2cc3c(=O)[nH]c(=O)nc-3n(CC(O)C(O)C(O)CO)c2cc1C (stereo not given),-3.0,nt,44%,nt,nt,-16,nt
CCOC(=O)N1CCN(CC(=O)N2c3ccccc3CC2C)CC1 (stereo not given),0.6,-0.1,3%,0.8,-6.1,-1,0.67
Cc1ccc(NC2CCCN(C(=O)c3snnc3C)C2)cc1C (stereo not given),0.1,0.4,8%,0.4,-4.6,-4,0.68
COc1ccc(CNC(=O)C2CCCN(S(=O)(=O)c3c(C)noc3/C=C/N(C)C)C2)cc1 (stereo not given),-1.5,-0.5,2%,9.5,-0.7,-5,0.69
Cn1c(=O)oc2cc(S(=O)(=O)NC(Cc3ccccc3)C(=O)N3CCCCC3)ccc21 (stereo not given),-1.9,0.3,1%,3.3,2.6,-27,0.69
CCCCCCCc1c(O)nc(SCCN(C)C)[nH]c1=O,-1.6,0.1,17%,6.0,-0.3,-3,0.68
CC(C)(C)n1nnnc1C(c1cccs1)N1CCN(C(=O)c2ccco2)CC1 (stereo not given),3.7,-1.1,11%,1.5,-3.7,-4,0.71
CCC(Oc1ccccc1C)C(=O)N1CCCN(C)CC1 (stereo not given),3.6,-0.5,-11%,-1.1,3.5,1,0.69
O=C(Nc1ccc2c(c1)OCCO2)c1cccc(C(=O)Nc2ccc3c(c2)OCCO3)c1,-2.1,-2.9,-5%,-21,-0.7,-9,0.65
C=CCN=C1NN=C(c2cc(C)n(CC=C)c2C)CS1,1.5,-0.6,nt,7.2,-17,-4,0.7
CC(NC(=O)CN(C)Cc1cccs1)c1ccccc1 (stereo not given),-0.5,0.2,-4%,-0.2,-5.3,2,0.69
CCc1nnc(N/N=C/c2c(Cl)cccc2Cl)n1N,1.3,0.6,-4%,nt,0.8,-3,nt
C=CCOc1ccc(/C(O)=C2/C(=O)C(=O)N(CCCN3CCOCC3)C2c2ccc(OC)cc2)cc1 (stereo not given),-0.7,-0.9,20%,13,16*,-1,0.72
Cc1cc(=O)n2ccsc2n1,5.4,1.0,-2%,3.2,nt,-1,0.68
O=C(CSc1nc(-c2ccc(F)cc2)cs1)NCC1CCCO1 (stereo not given),0.2,-0.2,-8%,-1.2,-2.4,-13,0.68
O=[N+]([O-])/C(C=Nc1ccccc1O)=C\Nc1ccccc1O,0.6,nt,?,5.6,nt,5,0.65
COc1ccc(-c2c(-c3ccc4c(c3)OCO4)c3ccccc3n2C)cc1,-3.7,nt,-2%,nt,nt,0,nt
O=C(NCCCc1ccccc1)C1CCC(=O)N(CCc2ccc(Cl)cc2)C1 (stereo not given),4.0,-0.1,0%,-1.3,-4.2,-7,0.65
Cc1ccc(C)c(N2CCN(C(=O)CCc3nc(-c4cccc(F)c4)no3)CC2)c1,-0.1,nt,-6%,1.5,nt,-4,0.7
CCCCSc1nnc2[nH]c(=O)cc(N)n12,0.8,-0.1,-3%,0.3,-5.0,6,0.69

# Later entries.
SMILES,HNF4A DNA FP,Bfl-1 A1 inh,Vif TR-FRET,UCH37 inh,LANA-H2B inh,B2AR ag,Ecoli growth
CSc1ncccc1C(=O)OCC(=O)NC1CCCCC1,2.1,0.9,nt,0.6,-0.5,-9,0.7
CC(C)N(c1ccccc1)c1ccc(NC(=O)C2CCCO2)cc1 (stereo not given),0.8,-0.1,-2%,3.2,1.5,6,0.71
O=C(Nc1ccc(S(=O)(=O)N2CCOCC2)cc1)C1CCN(S(=O)(=O)c2ccccc2)CC1,-2.2,-0.4,-5%,0.4,nt,10,0.7
COc1ccc(-c2nc(CS(=O)CC(=O)NC3CCCCC3C)c(C)o2)cc1OC (stereo not given),0.0,0.0,nt,-1.3,-0.6,-5,0.7
Cc1cc(C)c2c(=O)[nH]n(C3CC(C)N(C)CC3C)c2n1 (stereo not given),-2.5,-0.3,2%,3.0,-1.4,-1,0.66
CCOCCc1nnc(NC(=O)C(C)Oc2ccccc2)s1 (stereo not given),-3.1,-0.1,-11%,-1.8,0.8,-2,0.7
Cc1cc(C)c(C#N)c(SCc2ccccc2[N+](=O)[O-])n1,3.5,0.2,-8%,2.4,3.2,-17,0.71
CCOC(=O)c1c(C)[nH]c(C(=O)OCC(=O)N2CCN(S(=O)(=O)c3ccc(C)cc3C)CC2)c1C,-2.8,0.3,-7%,2.3,122*,-9,0.68
Cc1ccc(S(=O)(=O)N(C)C)cc1NC(=O)COC(=O)Cc1ccccc1F,-1.8,0.4,17%,0.8,2.6,0,0.68
COc1ccc(C(=O)N/C(=C/c2cccnc2)C(=O)N2CCOCC2)cc1OC,3.5,1.1,2%,5.7,-0.5,5,0.67
Nc1nc(NCc2ccco2)nc(NCCO)c1[N+](=O)[O-],0.6,0.7,4%,16,3.5,2,0.61
CNc1nc2[nH]c(=O)c3c(c2s1)OC(N)=C(C#N)C3c1ccccc1 (stereo not given),1.9,-0.8,2%,nt,1.9,-6,nt
O=C1CCCN1CCC1CCN(C2CC(=O)N(c3ccc(Cl)cc3)C2=O)CC1 (stereo not given),2.1,0.5,2%,2.6,2.9,1,0.68
O=C(CNCc1ccccn1)Nc1cc(C(F)(F)F)ccc1N1CCOCC1,-0.7,1.7,nt,2.8,-1.3,0,0.7
O=C(CSc1n[nH]c(-c2cccnc2)n1)Nc1ccc([N+](=O)[O-])cc1,6.1,-0.1,nt,5.7,-2.3,8,0.61
O=C(N/N=C/c1[nH]c2ccccc2c1Cl)c1cccc(Br)c1,0.4,0.4,18%,nt,7.8,2,nt
CCCNC(=O)c1ccc(N2CCC3(CC2)CC(c2cccc(Br)c2)=NO3)c(NC(=O)c2c(Cl)cccc2Cl)c1,1.0,0.3,nt,5.3,1.8,5,0.73
NS(=O)(=O)c1ccc(Nc2nc(-c3ccc(O)cc3)cs2)cc1,0.3,1.4,5%,1.8,6.0,5,0.63
Cc1ccc(Nc2cc(C)nc3ncnn23)cc1,-2.8,0.0,nt,-0.4,2.0,-2,0.63
Cc1ccccc1CC(=O)N1CCCC(CCC(=O)N2CCN(c3ccccn3)CC2)C1 (stereo not given),0.8,-0.3,27%,-0.3,2.6,-11,0.69
O=[N+]([O-])c1ccc(C2=NCCO2)cc1,-3.5,-1.0,11%,0.7,-0.4,-14,0.64

# Reformatted: entries from further up
Compound | HNF4A DNA FP | Bfl-1 A1 inh | Vif TR-FRET | UCH37 inh | LANA-H2B inh | B2AR ag | Ecoli growth
Cc1ccc(Nc2cc(C)nc3ncnn23)cc1 | -2.8 | 0.0 | nt | -0.4 | 2.0 | -2 | 0.63
Cc1ccccc1CC(=O)N1CCCC(CCC(=O)N2CCN(c3ccccn3)CC2)C1 (stereo not given) | 0.8 | -0.3 | 27% | -0.3 | 2.6 | -11 | 0.69

# Screens as filed in PubChem.
